Arbovirus anti: arbovirus infection inhibition; arbovirus infection cell-based antiviral screen; inhibition, % at 10 µM; hit rate 0.37% among 200,000;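 active = inhibition from about 30%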;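 also: bluetongue infection of BSR cells; cell survival read as ATP light after 72 h; 0% = infected wells without compound and 100% = uninfected wells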
YopH PTP inh: blocks Yersinia enterocolitica YopH tyrosine phosphatase. fluorescence Ex485/Em525. inhibition, %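 (about 10 µM by stock and volumes)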. hit rate 0.16% among 140,000;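 active = inhibition of 50% or more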;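 also: controls were vehicle for no effect and minimum signal wells for full effect; inactives centre near -20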
Mtb growth: M. tuberculosis H37Rv growth inhibitors, H37Rv strain (AID 1626) | M. tuberculosis H37Rv growth inhibition; higher % means a stronger effect | inhibition, % at 10 µM, or IC50 in µM where a hit was titrated | hit rate 0.95% among 220,000;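 active = confirmed in a dose series; inconclusive = inhibition above 80% but not taken into the dose series; inactive = below 80% or under 30% at every dose of the series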;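 also: bacteria incubated seven days before Alamar blue readout; 0% = bacteria only wells and 100% = bacteria with antibiotic wells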
RecA intein inh: inhibitors of M. tuberculosis RecA intein splicing | P9WHJ3 | cell-free RecA intein splicing, fluorescence | inhibition, %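 (about 9 µM by stock and volumes)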 | hit rate 0.75% among 290,000; in the data active = inhibition above about 30%; inconclusive = no clear call, values can overlap the other calls;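 also: 0% = vehicle wells and 100% = reference inhibitor control wells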
Target sequence (P9WHJ3 whole entry, looked up): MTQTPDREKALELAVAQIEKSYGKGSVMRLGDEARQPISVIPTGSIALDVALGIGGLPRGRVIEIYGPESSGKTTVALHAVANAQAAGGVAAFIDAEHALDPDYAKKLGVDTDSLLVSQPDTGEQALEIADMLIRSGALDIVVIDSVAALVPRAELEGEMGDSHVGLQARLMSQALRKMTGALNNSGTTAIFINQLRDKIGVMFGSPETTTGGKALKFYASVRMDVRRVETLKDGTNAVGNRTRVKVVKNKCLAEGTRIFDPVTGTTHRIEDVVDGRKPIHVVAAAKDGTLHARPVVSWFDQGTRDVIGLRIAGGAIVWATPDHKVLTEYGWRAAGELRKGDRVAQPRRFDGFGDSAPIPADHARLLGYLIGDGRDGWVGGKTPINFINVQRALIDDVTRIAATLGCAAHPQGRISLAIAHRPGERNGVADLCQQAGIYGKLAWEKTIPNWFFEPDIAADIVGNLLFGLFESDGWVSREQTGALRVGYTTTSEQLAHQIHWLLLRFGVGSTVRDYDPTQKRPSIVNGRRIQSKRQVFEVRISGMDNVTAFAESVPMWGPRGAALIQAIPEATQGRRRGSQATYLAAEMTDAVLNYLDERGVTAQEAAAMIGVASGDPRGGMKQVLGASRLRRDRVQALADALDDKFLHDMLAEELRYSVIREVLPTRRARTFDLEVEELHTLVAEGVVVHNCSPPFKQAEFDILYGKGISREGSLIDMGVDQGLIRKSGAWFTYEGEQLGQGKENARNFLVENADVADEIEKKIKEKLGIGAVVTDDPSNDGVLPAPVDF
Mtb bLac sens: beta-lactam sensitization of Mtb H37Rv | inhibition, % at 25 µM | AID 434955 | hit rate 0.27% among 330,000 | M. tuberculosis H37Rv growth with meropenem, percent inhibition; hits of this screen are not shown here;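 active = about 74% or more and at least 40 points above the plate without the antibiotic, then above 30% in a dose series; inconclusive = first-round hits that could not be retested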;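 also: growth measured after seven days incubation then overnight dye step; 0% = bacteria only wells and 100% = bacteria with antibiotic; twin plates without the antibiotic show which effects depend on it; some results filed as inactive read as strong as hits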
Arbovirus anti repeat: also measured in Arbovirus anti; calls as there; inhibition, %; measured here: 10K subset replicate screen; many hits read low in the repeat;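 first of two repeat runs on a subset; 0% = infected and 100% = uninfected wells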
Numbers without * were called inactive.

Start of the data: the first three compounds, to show the layout:
Screening Cc1ccc(CC(=O)O/N=C(\N)c2ccncc2)cc1 returned RecA intein inh -8.4 and Mtb bLac sens 0.1.
`CCSc1nnc(NC(=O)CSc2nnc(Cc3cccn3C)n2CCc2ccccc2)s1` gave Arbovirus anti 11.4, YopH PTP inh -8.7, Mtb growth 1.1%, RecA intein inh -0.9 and Mtb bLac sens -2.7.
Screening CCOc1ccc(S(=O)(=O)NCCC(=O)NCc2cccnc2)cc1 returned RecA intein inh -4.4 and Mtb bLac sens -7.0.

The list itself, from the first entry:
Screening Cc1ccc(CC(=O)O/N=C(\N)c2ccncc2)cc1 returned RecA intein inh -8.4 and Mtb bLac sens 0.1.
`CCSc1nnc(NC(=O)CSc2nnc(Cc3cccn3C)n2CCc2ccccc2)s1` gave Arbovirus anti 11.4, YopH PTP inh -8.7, Mtb growth 1.1%, RecA intein inh -0.9 and Mtb bLac sens -2.7.
Screening CCOc1ccc(S(=O)(=O)NCCC(=O)NCc2cccnc2)cc1 returned RecA intein inh -4.4 and Mtb bLac sens -7.0.
For CCc1cc(C(=O)OC)c(NC(=O)CC2NCCNC2=O)s1 (centres undefined) the results were Arbovirus anti 3.0, YopH PTP inh -33.6, Mtb growth -2.4%, RecA intein inh 0.8 and Mtb bLac sens -11.0.
Screening CCOc1ccc(-n2c(SC)nc3c(c2=O)SCC3)cc1 returned Arbovirus anti 5.3, YopH PTP inh -15.9, Mtb growth -3.3%, RecA intein inh -2.4 and Mtb bLac sens -1.6.
Screening CCCCOc1ccc(CNC(=S)N/N=C/c2ccc(OC)c(OC)c2)cc1 returned Arbovirus anti 6.9, YopH PTP inh 11.9, Mtb growth 10.9%, RecA intein inh 4.1 and Mtb bLac sens -5.4.
Screening O=C1c2ccccc2C(=O)c2c1cccc2N1CCN(CCO)CC1 returned Arbovirus anti -5.3, YopH PTP inh -22.4, Mtb growth -5.4%, RecA intein inh 2.4 and Mtb bLac sens -2.4.
For COc1cc(C2c3c(-c4ccccc4)n[nH]c3C(=O)N2c2ccc(C(=O)O)cc2)ccc1O (centres undefined) the results were Arbovirus anti 1.9, YopH PTP inh -50.6, Mtb growth 0.3%, RecA intein inh 1.2 and Mtb bLac sens -2.1.
`CC1=C(C(=O)N2CCCC(CCC(=O)NCc3ccc(F)c(F)c3)C2)OCCO1` (centres undefined) gave Arbovirus anti -2.4, Mtb growth -10.6%, RecA intein inh -1.2 and Mtb bLac sens 1.9.
O=C1C(=O)N(CNc2cccnc2)c2ccccc21 was read as Arbovirus anti 3.7, YopH PTP inh -31.3, Mtb growth 8.9%, RecA intein inh -0.3 and Mtb bLac sens 10.0.
For O=C1CC(C(=O)N2CCCc3ccccc32)CN1c1ccc(F)cc1 (centres undefined) the results were RecA intein inh 2.0 and Mtb bLac sens 1.0.
`O=C(NCCCSc1ccccc1)c1cnc(Cl)c(Cl)c1` gave RecA intein inh 5.3 and Mtb bLac sens 0.6.
`CCOC(=O)c1sc(NC(=O)CSc2ncccn2)c(C#N)c1C` gave Arbovirus anti 7.0, YopH PTP inh -4.5, Mtb growth 46.4% and RecA intein inh -0.3.
Screening COc1ccccc1NC(=O)C1CCN(S(=O)(=O)c2ccc3c(c2)NC(=O)C(C)S3)CC1 (centres undefined) returned RecA intein inh 1.1 and Mtb bLac sens -2.2.
For Cc1noc(C)c1COC(=O)c1ccc2c(c1)OCCO2 the results were Arbovirus anti -1.4, YopH PTP inh -35.5, Mtb growth 3.8% and Mtb bLac sens -3.9.
`CCCNC(=O)c1nc(C)n(-c2cc(Cl)cc(Cl)c2)n1` gave Arbovirus anti 3.2, Mtb growth 1.1%, RecA intein inh -1.8 and Mtb bLac sens -5.0.
For CNc1ccc(Br)cc(C(=O)/C=C/c2ccc(Cl)cc2Cl)c1=O the results were Arbovirus anti -9.4, Mtb growth 0.2%, RecA intein inh 1.7 and Mtb bLac sens 7.0.
For CCOC(=O)c1cnc2ccccc2c1Nc1ccc(C(=O)O)cc1 the results were Arbovirus anti -0.5, Mtb growth 7.2%, RecA intein inh 1.7 and Mtb bLac sens -0.9.
For COc1ccccc1NC(=O)COC(=O)c1cnccn1 the results were Arbovirus anti 1.2, YopH PTP inh 14.2, Mtb growth -2.0%, RecA intein inh -3.9 and Mtb bLac sens 2.2.
Screening O=C(Nc1ccc(C(F)(F)F)cc1)c1cc(S(=O)(=O)NCC2COc3ccccc3O2)ccc1F (centres undefined) returned Arbovirus anti -27.2, YopH PTP inh -8.4, Mtb growth 3.2%, RecA intein inh 0.0 and Mtb bLac sens 70.6.

Reprinted from the part before: 2 compounds; new compounds follow.
For COc1ccccc1NC(=O)COC(=O)c1cnccn1 the results were Arbovirus anti 1.2, YopH PTP inh 14.2, Mtb growth -2.0%, RecA intein inh -3.9 and Mtb bLac sens 2.2.
Screening O=C(Nc1ccc(C(F)(F)F)cc1)c1cc(S(=O)(=O)NCC2COc3ccccc3O2)ccc1F (centres undefined) returned Arbovirus anti -27.2, YopH PTP inh -8.4, Mtb growth 3.2%, RecA intein inh 0.0 and Mtb bLac sens 70.6.
For CCOc1ccc2[nH]c3c(=O)n(CCC4=CCCCC4)cnc3c2c1 the results were Mtb growth 8.7%, RecA intein inh -1.7 and Mtb bLac sens -6.3.
For CCCN(CCC)C(=O)CSc1nc2n[nH]c(C)c2c(=N)n1-c1ccc(OC)cc1 the results were Arbovirus anti -9.3, YopH PTP inh -46.5, RecA intein inh 3.9 and Mtb bLac sens -1.3.
`OCC[C@@H]1C[C@H](O)[C@@H](O)[C@]2(Cc3ccccc3O2)O1` gave RecA intein inh -2.8 and Mtb bLac sens -7.1.
CC(=O)Nc1ccc(N2C(=O)CC(N3CC(C)OC(C)C3)C2=O)cc1 (centres undefined) was read as Arbovirus anti 7.2, YopH PTP inh -15.5, Mtb growth 4.3%, RecA intein inh 0.1 and Mtb bLac sens -15.4.
For Cc1csc(NC(=O)CSc2nnc(-c3ccco3)n2C)n1 the results were Arbovirus anti -4.6, YopH PTP inh -37.8, Mtb growth -4.1%, RecA intein inh 1.1 and Mtb bLac sens -2.0.
Screening CCC(C)[C@H]1CNC(=S)N1CCc1cc(C(F)(F)F)cc(C(F)(F)F)c1 (some centres undefined) returned Arbovirus anti -14.8, Mtb growth 1.4%, RecA intein inh -5.4 and Mtb bLac sens 2.7.
For COc1ccc(-c2[nH]ncc2/C=C(/C#N)C(=O)NC2CCCCC2)cc1 the results were Arbovirus anti -15.1, YopH PTP inh -10.9, Mtb growth -4.5%, RecA intein inh 4.0 and Mtb bLac sens -6.6.
Cc1c(Cl)cccc1N/C(=N/S(=O)(=O)c1cccs1)c1ccccc1 was read as Arbovirus anti -3.7, Mtb growth 7.0%, RecA intein inh 5.2 and Mtb bLac sens 1.5.
For CC(=O)N1Cc2ccccc2C(C)CC12CCCCC2 (centres undefined) the results were Arbovirus anti 5.0, YopH PTP inh -31.3, Mtb growth 5.6%, RecA intein inh 3.6 and Mtb bLac sens inconclusive.
For O=C(NCc1ccc2c(c1)OCO2)c1ccc(CSCc2ccccc2Cl)o1 the results were Arbovirus anti 7.7, YopH PTP inh -23.3, Mtb growth 5.5%, RecA intein inh 22.2 and Mtb bLac sens 6.0.
COc1ccccc1CNCC(O)(c1ccc(F)cc1)c1ccc(F)cc1 was read as RecA intein inh -2.1 and Mtb bLac sens 6.2.
CCN(CC)S(=O)(=O)c1ccc2c(c1)nc(CCC(=O)OCC(=O)Nc1c(F)cccc1F)n2C was read as Arbovirus anti 11.4, YopH PTP inh -25.9, Mtb growth 4.0%, RecA intein inh 0.3 and Mtb bLac sens 2.3.
For O=C(Nc1ccc(Br)cc1)C1CCC(=O)N1Cc1ccccc1Cl (centres undefined) the results were Arbovirus anti 3.5, YopH PTP inh -30.4, Mtb growth 7.2%, RecA intein inh 1.4 and Mtb bLac sens -8.2.
`Cc1cc(NC(=O)CN(C)S(=O)(=O)c2cnc[nH]2)ccc1Br` gave RecA intein inh -2.0 and Mtb bLac sens 2.7.
Screening CCOC(=O)CNC(=S)N1CCn2c(nc3ccccc32)C1 returned Arbovirus anti -1.6, Mtb growth 5.0%, RecA intein inh -3.7 and Mtb bLac sens -1.2.
Screening Cc1c(Cl)cccc1NC(=O)C1C2C=CC(C2)C1C(=O)O (centres undefined) returned RecA intein inh -0.2 and Mtb bLac sens 6.8.
Cc1ccc(S(=O)(=O)NC2=NCN(CCOC(=O)c3ccccc3)CN2)cc1 was read as Arbovirus anti 2.6, YopH PTP inh -9.6, Mtb growth -0.4%, RecA intein inh 0.0 and Mtb bLac sens -7.4.
Screening COc1ccc(-c2nc(SC)n(C(=O)c3ccco3)n2)cc1 returned Arbovirus anti -0.3, YopH PTP inh -26.0, Mtb growth -5.9%, RecA intein inh 12.0 and Mtb bLac sens -7.8.
O=c1c2cn[nH]c2[nH]c(=S)n1-c1ccccc1 was read as Arbovirus anti 3.5, YopH PTP inh -32.8, Mtb growth -3.4%, RecA intein inh 1.5 and Mtb bLac sens -14.6.
`NCCCC[C@H]1CN=C(N)N1CCc1cccc2ccccc12` gave Mtb growth -1.7%, RecA intein inh 0.4 and Mtb bLac sens -7.8.
Screening C#CCOCCOCCOCCNc1nc(N2CCN(C(=O)[C@H]([C@@H](C)CC)n3cc([C@@H](N)Cc4ccc(O)cc4)nn3)CC2)nc(N2CCN(C(=O)[C@H](Cc3cc4ccccc4[nH]3)n3cc([C@@H](N)C(C)CC)nn3)CC2)n1 (some centres undefined) returned Arbovirus anti -10.1, RecA intein inh 2.2 and Mtb bLac sens 99.2.
`NC(=O)[C@@H]1[C@@H]2C(=O)N(c3ccc(F)cc3)C(=O)[C@@H]2[C@H]2C=Cc3ccccc3N21` gave Mtb growth -1.9%, RecA intein inh -7.0 and Mtb bLac sens -5.7.
Screening O=C(c1cccc(Cl)c1)C1CCCN(Cc2ccc(N3CCNC3=O)cc2)C1 (centres undefined) returned Arbovirus anti -24.7, Mtb growth -0.4%, RecA intein inh -0.7 and Mtb bLac sens 1.9.
`Cc1ccnc(NC(=O)CCC2CCCCC2)c1` gave Arbovirus anti -5.3, YopH PTP inh -8.5, Mtb growth -20.8% and Mtb bLac sens -4.3.
CC(=O)Nc1ccc(NS(=O)(=O)c2cc(-c3cnc(C4CC4)o3)ccc2C)cc1 was read as RecA intein inh -3.9 and Mtb bLac sens 0.6.
`Cc1ccc(-n2c(SCC(N)=O)nc3c(oc4ccccc43)c2=O)cc1` gave RecA intein inh 1.0 and Mtb bLac sens -3.3.
CC12C=CC3(CN(Cc4ccccc4)C(=O)C3C1C(=O)NCc1ccco1)O2 (centres undefined) was read as Arbovirus anti -3.2, YopH PTP inh -4.0, Mtb growth -5.3%, RecA intein inh 0.2 and Mtb bLac sens -4.0.
`O=C(O)COC(=O)C1C(c2ccccc2)C(C(=O)O)C1c1ccccc1` (centres undefined) gave Arbovirus anti 4.6, Mtb growth 0.0%, RecA intein inh -0.5 and Mtb bLac sens 2.6.
CN(Cc1ccco1)C(=O)C(Cc1ccccc1)NS(=O)(=O)c1ccc2c(c1)CCC(=O)N2 (centres undefined) was read as Arbovirus anti 4.3, YopH PTP inh -39.0, Mtb growth 2.2%, RecA intein inh -0.7, Mtb bLac sens 0.8 and Arbovirus anti repeat 3.7.
COc1cccc(CN2CCNC(=O)C2CC(=O)NCCCN2CCCC2=O)c1 (centres undefined) was read as RecA intein inh 1.8 and Mtb bLac sens 3.3.
Screening COc1cccc(Nc2nc(N)c([N+](=O)[O-])c(N3CCOCC3)n2)c1 returned RecA intein inh 3.0 and Mtb bLac sens -0.1.
For Cc1cccc(OCc2nnc(SCC(=O)N3CCc4ccccc43)n2C)c1 the results were Arbovirus anti 11.8, YopH PTP inh -30.6, Mtb growth 0.8%, RecA intein inh 1.4 and Mtb bLac sens -7.1.
For C/C(=N\NC(=O)C(N)=O)c1ccc(NC(=O)c2cccs2)cc1 the results were Arbovirus anti 6.9, Mtb growth 0.3%, RecA intein inh -3.4 and Mtb bLac sens -3.6.
CCC(C)OC(=O)n1ccc(C(=O)Nc2nccs2)n1 (centres undefined) was read as Arbovirus anti 2.6, YopH PTP inh -24.6, Mtb growth -1.1%, RecA intein inh -6.9 and Mtb bLac sens 4.5.
COc1ccc(NC(=O)C(NC(=O)c2ccc(=O)[nH]c2)c2ccc(C)cc2)cc1 (centres undefined) was read as Arbovirus anti 0.7, YopH PTP inh -23.3, Mtb growth -4.4%, RecA intein inh -2.3 and Mtb bLac sens -2.5.
`Cc1ccc(-c2oc3ncnc(N)c3c2-c2ccc(C)cc2)cc1` gave Arbovirus anti -4.4, YopH PTP inh 10.8, Mtb growth 6.1%, RecA intein inh -3.7 and Mtb bLac sens -6.9.
For CC1(C)CC(=O)C2=C(C1)OC1=C(C(=O)CC(C)(C)C1)C2c1cc([N+](=O)[O-])cc([N+](=O)[O-])c1O the results were Arbovirus anti 24.3, Mtb growth -5.4%, RecA intein inh 3.9 and Mtb bLac sens -4.1.
`O=C(N/N=C/c1cccc(O)c1)N/N=C/c1cccc(O)c1` gave RecA intein inh -0.2 and Mtb bLac sens -0.7.

From PubChem

A portion of the library; count on the stated rates, not on these rows.
